# CSC inhib: blocks cancer stem cells; cancer stem cell-like cells viability, luminescence; 300,000 compounds, 1.1% hits; inhibition, % at 7.5 µM; AID 2717;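 active = mean at 75% or more and at least half the replicates too; tested in HMLE shEcad cells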;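 also: 0% = median of negative and 100% = median of positive control wells; the first replicate is given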
# eIF4H FP inh: inhibitors of RNA binding by human eIF4H | Q15056 | eIF4H fluorescence polarization binding assay | inhibition, % at 35 µM | 290,000 compounds, 0.94% hits | AID 2012;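 active = 50% or more with normal probe brightness, or confirmed in later tests; about a fifth of its hits are not listed in these tables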;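 also: calls also rest on retests at 20 µM and on dose response follow-up; 0% = protein and probe with vehicle and 100% = probe without protein; strong numbers were not always called active; many hits fall short of the cut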
# UUG fidelity: yeast start codon fidelity modulation; S. cerevisiae UUG-firefly luciferase reporter, luminescence/redox ratio; 350,000 compounds, 0.13% hits; activity score, % at 18.7 µM; AID 602363;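 active = replicate mean at a twofold rise or more, about +100% in these data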;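 also: firefly luciferase made from a UUG start codon reports start codon fidelity; reporter light over untreated wells divided by growth signal over untreated wells; some hits fall short of that in this replicate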
# HIV Env fusion: inhibitors of HIV Env-mediated cell fusion | 360,000 compounds, 1.1% hits | HeLa-JRFL Env/CEM21 cell fusion, luciferase | inhibition, % at 12.3 µM;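 active = mean replicate inhibition score of at least 50 and every replicate individually at or above 50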;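 also: 0% = plate neutral controls and 100% = maraviroc near 300 nM; one replicate is shown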
# PABP polyA inh: PABP-poly(A) binding inhibition. PABP-poly(A) RNA binding, fluorescence polarization. inhibition, % at 35 µM. 290,000 compounds, 1% hits. AID 2014;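 active = 50% or more with normal probe brightness, or confirmed in later tests; about a fifth of its hits are not listed in these tables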;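 also: calls also rest on retests at 20 µM and on dose response follow-up; controls were probe without protein and protein plus probe with vehicle; some compounds called inactive have numbers as strong as hits; many hits fall short of the cut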
# Target sequence (P11940 whole entry, looked up): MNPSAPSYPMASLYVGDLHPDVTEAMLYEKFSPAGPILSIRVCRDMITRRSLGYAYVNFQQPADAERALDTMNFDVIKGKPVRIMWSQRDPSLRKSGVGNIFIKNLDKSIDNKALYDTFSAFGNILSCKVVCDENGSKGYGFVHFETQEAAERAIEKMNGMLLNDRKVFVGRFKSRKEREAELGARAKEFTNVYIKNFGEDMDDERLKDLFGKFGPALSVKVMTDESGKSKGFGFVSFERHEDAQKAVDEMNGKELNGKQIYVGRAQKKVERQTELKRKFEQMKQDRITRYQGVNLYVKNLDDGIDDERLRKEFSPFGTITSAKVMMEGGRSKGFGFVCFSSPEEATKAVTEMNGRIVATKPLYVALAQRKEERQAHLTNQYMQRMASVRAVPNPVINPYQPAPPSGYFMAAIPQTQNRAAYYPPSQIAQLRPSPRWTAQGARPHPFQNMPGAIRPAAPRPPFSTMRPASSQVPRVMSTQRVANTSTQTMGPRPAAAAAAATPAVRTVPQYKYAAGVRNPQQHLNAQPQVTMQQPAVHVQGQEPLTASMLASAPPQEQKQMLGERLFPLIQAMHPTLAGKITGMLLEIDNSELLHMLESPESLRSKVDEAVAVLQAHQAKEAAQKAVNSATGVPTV
# MT1-MMP act inh: MT1-MMP (human) activation inhibition. HT1080 RFP-PRO-GFP cells, GFP/RFP ratio fluorescence, overnight; percent of plate control window, DMSO zero. 360,000 compounds, 0.061% hits. GFP/RFP ratio change, % at 20 µM. AID 651647;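 active = GFP/RFP ratio change of at least 30% with cell ATP level not reduced by more than half and red fluorescence within 50% of control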; also: strong numbers were not always called active
#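 Assay system: RFP-PRO-GFP reporter HT1080 cells; read-out basis: GFP/RFP fluorescence ratio; benchmarks: DMSO wells and RFP-L50D-GFP cells; doses: 20 µM single dose, 1% DMSO; schedule: overnight cell settling, then overnight compound exposure, 37 °C, 5% CO2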
# Rce1 inh: blocks yeast Ras-converting enzyme; Q03530; yeast membranes, quenched prenylated peptide cleavage fluorescence; calls only; 290,000 compounds, 0.27% hits;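 active = fall in fluorescence gain of 50% or more versus controls, with final raw signal at or below 3038400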;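 also: plate controls were neutral control wells for no effect and wells lacking membranes for full effect; tested at 10 µM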
# eIF4H FP inh retest: further read-out of eIF4H FP inh, marked with its call; inhibition, %; compound at 20 µM; confirmation average;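 mean of two retest wells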
# PABP polyA inh retest: also measured in PABP polyA inh; calls as there; inhibition, %; compound at 20 µM; confirmation repeats;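 mean of two retest wells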
# MT1-MMP act inh RFP: also measured in MT1-MMP act inh; calls as there; RFP signal change, %; measured here: RFP expression control read;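 0 = vehicle wells; hits needed this value within 50% of zero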
# The depositor's hits bear a star; i = inactive; / = not tested or not shown; + = active, no number. This is a subset, so the mix of outcomes need not match the whole.
SMILES,CSC inhib,eIF4H FP inh,UUG fidelity,HIV Env fusion,PABP polyA inh,MT1-MMP act inh,MT1-MMP act inh RFP,Rce1 inh,others
CCc1nnc(NC(=O)CSc2nnc3c4ccccc4n(C)c3n2)s1,-10,-8,2,/,-4,1,2,i,
CC(NC(=O)COC(=O)c1ccc(N(C)C)cc1)c1ccccc1 (stereo not given),1,5,-14,23,-6,0,0,i,
O=c1[nH]c(=O)n2c(c1-c1ccccc1)OC(CBr)C2 (stereo not given),/,/,-14,2,/,5,-1,/,
CC(c1cc2ccccc2s1)N(O)C(N)=O (stereo not given),-6,-2,/,/,5,/,/,i,
CCn1c(SCc2ccc(Cl)cc2)nnc1-c1ccccc1,-17,-1,-26,-52,-1,-1,1,/,
CCc1noc(C)c1C(=O)N1CCCC(C(=O)c2ccc(OC)c(F)c2)C1 (stereo not given),/,-2,/,4,-12,0,0,i,
CCOP(=O)(c1ccccc1)c1nc(-c2ccccc2Cl)oc1N1CCCCC1 (stereo not given),-2,3,/,-33,-1,-6,-7,+,
O=C(COC(=O)/C=C/c1cccc(Br)c1)NC1CCCC1,-15,/,0,1,/,4,4,/,
Cc1noc(C)c1COc1ccc(C(=O)N2CCN(c3ccccc3O)CC2)cc1,-4,/,-9,6,/,3,0,/,
Fc1ccc(-c2csc(/C=C/c3ccc4c(c3)OCO4)n2)cc1,11,-12,/,4,-2,0,1,i,
O=C(O)c1cc(-c2ccc3ccccc3n2)nc2ccccc12,-2,7,-34,-42,4,2,2,i,
CN(Cc1cccs1)C(=O)/C=C/c1ccccc1[N+](=O)[O-],-18,-4,/,5,-1,-9,-6,i,
COc1ccc2c(c1OC)C(=O)N(c1ccc(C)c(C)c1)C2=O,-7,0,/,-74,6,-3,-5,i,
COc1ccc(CCN2CCCn3c2nc2c3c(=O)n(C)c(=O)n2C)cc1OC,/,-4,-14,4,1,-2,-2,i,
CC1(C)CC(=O)C2=C(C1)OC(N)=C(C#N)C2c1cn(-c2ccccc2)nc1-c1ccc(F)cc1 (stereo not given),10,-2,/,-7,5,-11,-9,i,
O=C(O)C(Cc1c[nH]c2ccccc12)N1C(=O)C2C3c4ccccc4C(c4ccccc43)C2C1=O (stereo not given),-5,6,/,5,15,-7,0,i,
CC(=O)N1CCCc2cc(S(=O)(=O)N3CCN(C4CCCCC4)CC3)ccc21,/,-3,-18,/,-1,-2,-1,i,
Cn1ccnc1C(=O)C1CCCN(Cc2cn[nH]c2-c2ccc(-c3ccccc3)cc2)C1 (stereo not given),-1,-8,-4,-12,-5,2,1,i,
Cn1ccnc1Sc1ccc(/C=N/NC(=O)c2ccccc2[N+](=O)[O-])cc1[N+](=O)[O-],23,3,/,-4,-6,2,0,i,
COc1ccc(Br)c2c1C(=O)CC2,-2,-5,-12,-2,7,1,1,i,
CC(C)(C(=O)O)n1cncn1,-6,-11,-30,-9,-7,0,5,i,
CC1NC(=O)c2cccnc2-n2c1nc1ccccc1c2=O (stereo not given),/,/,-16,9,/,-1,5,/,
Cc1nn(Cc2ccccc2Cl)c(C)c1C(=O)NC1=NCCS1,-3,-6,-16,/,-10,0,3,i,
O=C(O)C[C@H]1c2ccc(C(F)(F)F)cc2S(=O)(=O)N1Cc1ccccc1,-6,/,-14,-20,/,-2,2,i,
CC[C@@]1(C(=O)OC)N[C@H](CN(C)C(=O)C2CCCCC2)[C@@H]2C(=O)N(C)C(=O)[C@@H]21,-13,/,-4,-19,/,1,3,/,
Cc1cc(C)nc(Nc2nc(C(N)Cc3ccc(Cl)cc3)cs2)n1 (stereo not given),/,/,-19,-34,/,-2,0,/,
COc1ccccc1N(C)S(=O)(=O)c1ccc(Cl)c(C(=O)OCc2c(C)noc2C)c1,3,-6,/,40,0,-3,-7,/,
CC(C)Oc1ccc(OCCCN2CCCCCC2)cc1,59,3,9,-83,6,-4,-6,i,
CCOC(=O)N1CCN(C(=O)CN(c2cccc(C(F)(F)F)c2)S(=O)(=O)c2ccccc2)CC1,-3,-4,-7,/,4,5,-3,i,
CCC(=O)NCc1c(C)c(C)n(Cc2ccccc2)c1-n1cccc1,-7,-5,/,6,-12,-1,2,i,
Cc1ccc(NC(=O)COc2coc(CN3CCc4ccccc4C3)cc2=O)cc1Cl,-6,/,/,32,/,-6,-13,i,
Cc1cc(C)cc(NC(=S)N2C3CCCC2CC(NC(=O)C2CC2)C3)c1 (stereo not given),/,-7,-30,5,-5,3,1,i,
O=C(C1CC1)N1CCN(C(c2ccccc2)c2ccccc2)CC1,-2,-10,8,16,-7,2,2,i,
COc1cc2c(cc1OC)C(C)N(C(C)=O)CC2 (stereo not given),-5,-6,-9,/,-1,9,2,i,
CCSc1nc(O)cc(=O)[nH]1,-6,1,1,24,2,-1,4,i,
COc1ccc(C(CNC(=O)C2CC2)N(C)C)cc1 (stereo not given),/,-2,-14,-1,0,-3,2,i,
COc1ccc(Cl)cc1N1C(=O)CN(Cc2cc(OC)c(OC)c(OC)c2)C1=S,4,-5,-1,-15,5,-7,-5,i,
C[C@@]12CC(=O)NC1N(C(=O)c1ccccc1)C(c1ccccc1OC(=O)c1ccccc1)C2 (stereo not given in full),-10,-4,-13,-76,-3,-5,0,i,
COc1ccc(CN2CCNC(=O)C2CC(=O)NCCCn2cccn2)cc1C (stereo not given),-5,5,-17,17,15,-2,0,i,
CC(C)Nc1nc2n(c(=O)n1)CCN2C(C)C,13,-4,-9,/,-2,3,8,i,
CCOC(=O)CCNC(=O)N1CCCC(C(=O)c2cc(C)c(OC)c(C)c2)C1 (stereo not given),-4,-5,-7,0,6,-2,1,i,
CCn1c(O)c(N=NC(=O)CNC(=O)/C=C/c2ccco2)c2ccccc21,7,-5,/,/,4,6,7,i,
Cc1cc(Cl)c(S(=O)(=O)N2CCCC2)cc1OCC(N)=O,-10,7,/,5,1,3,0,i,
Cc1cc(NC(=O)COc2nnc(-c3ccccc3)c3ccccc23)no1,10,-2,15,/,-4,-1,1,/,
COc1cc(=O)[nH]c(SC(C)C(=O)Nc2ccc3ccccc3c2)n1 (stereo not given),10,-6,-15,0,-4,0,5,/,
O=C(O)c1ccc(N(c2ccccc2)c2ccccc2)cc1,/,5,-12,/,4,3,-1,/,
Cc1nn(Cc2ccccc2)c(C)c1C(=O)NCCN1C(=O)S/C(=C\c2ccc(F)cc2)C1=O,17,-9,-10,/,2,-7,2,i,
COc1ccc(NC(=O)CN(C)C(=O)c2cc(-c3ccc(Cl)cc3)nc3ccccc23)cc1,36,/,/,26,/,2,1,i,
CCOC(=O)COc1ccc(Br)cc1C1NC(=O)NC(C)=C1C(=O)NCc1ccccc1 (stereo not given),-2,-7,3,/,-7,4,7,i,
C=CCN1c2ccccc2[C@]23C[C@@H](C(=O)OC)N(C(=O)c4ccc(Br)cc4)C2=NC(C(=O)OC)=C(C(=O)OC)[C@H]13,39,-8,-30,/,5,0,0,i,
Nc1ncnc(Oc2cccc3cccnc23)c1[N+](=O)[O-],-3,4,/,0,-3,1,3,i,
O=S(=O)(NCCc1ccc(Cl)cc1)c1cccc2cccnc12,-4,66,-9,7,11,-3,-4,i,eIF4H FP inh retest=19;PABP polyA inh retest=10
Cc1ccc(-n2nnnc2SCC(=O)NCC2CCCO2)cc1C (stereo not given),/,/,-12,-27,/,-1,1,/,
O=C(NCc1ccccc1)C(c1ccncc1)N(C(=O)c1csnn1)c1cccc(F)c1 (stereo not given),-2,-1,-7,-9,2,-1,0,i,
Nc1nc(N)nc(-c2ccccc2O)n1,-14,-1,-12,/,-1,-7,-4,i,
CCN1C(=O)[C@H]2[C@@H](c3ccc(Cl)cc3)N3C(=O)CN(CCOC)C(=O)[C@@]3(C)[C@H]2C1=O,19,-6,-3,-61,8,-2,4,i,
Cc1cccc(/C=N/NC(=O)Cc2cccs2)c1,-6,0,1,2,-18,0,-1,i,
COc1ccc(N(CC(=O)NN=C2CCN(C)CC2)S(=O)(=O)c2ccc(NC(C)=O)cc2)cc1,-8,3,-15,1,-5,-1,1,i,
CC(C)OC(=O)CN1CCN(S(=O)(=O)c2cc(Cl)ccc2Cl)CC1,5,-8,0,/,4,2,5,/,
Cc1cccc(S(=O)(=O)Nc2nc3ccccc3nc2Nc2cccc(C(=O)O)c2)c1,3,10,-19,-6,9,-2,3,i,
# (list continues)
SMILES,CSC inhib,eIF4H FP inh,UUG fidelity,HIV Env fusion,PABP polyA inh,MT1-MMP act inh,MT1-MMP act inh RFP,Rce1 inh,others
Cc1ccc(COCCN2CCN(S(=O)(=O)c3ccccc3)CCC2=O)cc1,-20,-7,5,-1,3,-5,-4,i,
COC(=O)c1ccc(CSc2nnc3n(Cc4ccccc4OC)c(=O)c4ccccc4n23)o1,17,0,/,15,-5,5,-1,i,
O=C(O)CCCN=CC1=C(O)CNC1=O,2,1,/,-2,-9,1,4,i,
N#CC(C(=O)NC1CCCCC1)=C1CCCCC1,0,6,/,-10,1,6,7,i,
COc1cc(CN2CCCCCC2)cc(OC)c1OC,-20,5,-8,-58,-1,1,2,i,
O=S(=O)(NCC(c1cccnc1)N1CCc2ccccc2C1)c1ccccc1 (stereo not given),0,-7,-11,31,20,-5,2,i,
CCOC(=O)c1c(C)c(C(=O)NCc2ccco2)c(C)n1Cc1ccccc1,-13,20,-10,/,3,-1,-1,i,
COc1cc2c(cc1C1NC(=S)NC(C)=C1C(N)=O)CCCC2 (stereo not given),/,1,/,44,2,6,7,/,
CCc1ccc(C(=O)COC(=O)CNC(=O)Cc2ccccc2)cc1,-1,-10,-10,7,3,-3,3,i,
CCC(C(=O)NCCc1c[nH]c2ccc(C)cc12)c1ccccc1 (stereo not given),-6,-1,-18,-11,2,-4,-3,i,
COc1ccc(C2CC(c3ccccc3)=NN2C(=O)COC(=O)C2CC2)cc1 (stereo not given),-1,-1,/,-24,7,2,2,i,
C=CCOc1ccc(C(=O)Nc2ncn[nH]2)cc1,2,-11,-4,-22,-9,-3,1,i,
OC(Cn1cccn1)c1ccccc1 (stereo not given),-12,-3,-11,/,5,3,4,i,
Cc1ccc(N2CC(C(=O)N3CCCCCC3)CC2=O)cc1 (stereo not given),-14,4,0,-3,14,-1,2,i,
Cc1cc2c(c(=O)o1)C(C1C=CCCC1)C(C#N)=C(N)O2 (stereo not given),-2,8,-17,-75,6,-1,1,/,
Cc1ccc2sc(N(CCCN(C)C)C(=O)c3ccc(S(=O)(=O)N(C)C)cc3)nc2c1C,21,-4,/,-6,-7,-2,-7,i,
CSCC[C@H](NC(=O)C(C)(C)Oc1ccc(Cl)cc1)c1nc2ccccc2[nH]1,/,-5,-19,25,-6,-4,-1,i,
CC(=O)c1ccc(OCCn2c(SCC(=O)O)nc3ccccc32)cc1,0,5,-15,10,-6,3,2,i,
CN1CCN(c2nc3c(c(=O)n(C)c(=O)n3C)n2Cc2ccccc2F)CC1,-5,4,-18,11,9,-4,0,i,

# Screens from PubChem.
